# Screening data: PubChem, National Center for Advancing Translational Sciences (NCATS)
# Vaccinia mCherry = qHTS for Stage-Specific Inhibitors of Vaccinia Orthopoxvirus: mCherry Reporter Primary qHTS. Vaccinia virus mCherry reporter infection, fluorescence; about a quarter of the inactives have no number. Potency, µM (top dose mostly 36.5 µM), for inactives: at the highest dose activity change, negative = inhibition, actives largely listed as inhibitors. actives 0.63% (n = 310,000). AID 720579, 2013; active = well fitted inhibition curve with a large enough effect; inconclusive = small, poorly fitted or top-dose-only effect; inactive = no such curve, though single readings can be large or run the other way; tested in A549 cells; further: nearly all actives have a fitted effect of over 35% in size; inactives centre near -10
# Vaccinia Venus = qHTS for Stage-Specific Inhibitors of Vaccinia Orthopoxvirus: Venus Reporter Primary qHTS; Vaccinia virus Venus reporter expression, fluorescence; Potency, µM (top dose mostly 36.5 µM), for the others: at the highest dose activity change, negative = inhibition, hits mostly inhibitors; actives 0.46% (n = 330,000); active means well fitted inhibition curve with a large enough effect; inconclusive means small, poorly fitted or top-dose-only effect; inactive means no such curve, though single readings can be large or run the other way; tested in A549 cells; further: nearly all actives have a fitted effect of over 30% in size; inactives centre near -10
# The depositor's hits bear a star; i = inactive; u = inconclusive; x = no result given; [ ] = dose if it differs, or a comment. On the % scale 0 is the no-effect control and ±100 the full control effect; potency means the concentration at half of the fitted maximal effect. This is a random part of the collection; about 0.88% have a hit in one of these screens.
SMILES,Vaccinia mCherry,Vaccinia Venus
Cc1cc(C)cc(NC(=O)CSc2nccn2C2CCCC2)c1,-16%,-10%
COc1ccc(OCc2n(CC(=O)OC3CC(C)CCC3C(C)C)c3ccccc3[n+]2C)cc1 (stereo not drawn),i[7.34 µM],0%[7.34 µM]
COc1nccc(C(F)(F)F)c1C(=O)Nc1ccc(Cl)cc1,-4%,1%
CC(=O)Nc1nc(-c2ccc3c(c2)OCO3)cs1,u,-26%
S=C(NCc1ccccn1)Nc1ccc(Br)cc1Cl,1%,-4%
Cc1ccc(OCCNc2ccc(C(F)(F)F)cc2[N+](=O)[O-])cc1,-12%,-12%
CCOc1ccccc1NC(=O)CCn1ccnc1,-8%,-2%
Cc1ccc(/C=C2/C(=O)NC(=O)N(CCc3ccc(F)cc3)C2=O)o1,x,4%
CCCC(=O)Nc1c2c(nc3ccccc13)N(c1ccccc1)CC2,-1%,-15%
CC(NC(=O)/C(C#N)=C/c1cn(-c2ccccc2)nc1-c1ccc(F)cc1)c1ccccc1 (stereo not drawn),i,-11%
Cc1[nH]c(=O)[nH]c(=O)c1CSc1nnc([C@@H](NC(=O)OC(C)(C)C)C(C)C)o1,x,-11%
CN(C)c1ccc(P(=O)(OCc2ccccc2)C(O)c2ccncc2)cc1 (stereo not drawn),-12%,-14%
O=C(NCCNC(=O)c1cnccn1)c1cccc(Cl)c1,-7%,4%
COc1cccc(N/C(SCc2cccc([N+](=O)[O-])c2)=C(/C#N)C(N)=O)c1,4%,-7%
O=C(Cn1nnc2ccccc2c1=O)N[C@@H](Cc1ccccc1)C(=O)O,-16%,-10%
CCC(=O)N1CCc2cc(CNS(=O)(=O)c3c(C)cc(C)cc3C)ccc21,-10%,-8%
O=C(Nc1ccccc1O)c1cccc(S(=O)(=O)N2CCOCC2)c1,-21%,-4%
C1=C(c2cn(-c3nc4ccccc4s3)nn2)CCCC1,1%,-3%
CC1CCN(C(=O)CSc2nc(-c3ccc(F)cc3)cc(C(F)(F)F)n2)CC1,-10%,2%
C/C(=N/OCC(=O)NCCCCCCNC(=O)CO/N=C(/C)c1cccs1)c1cccs1,-22%,-24%
CCOc1cc(/C=C2\SC(N)=NC2=O)ccc1O,u,-12%
Cc1cccn2c(=O)c(C(=O)NCCc3ccccc3)c(O)nc12,-14%,-5%
O=C(CSC1=NCCS1)NC1CCCCC1,x,0%
Cc1ccc(C(=O)Nc2ncc(C)s2)s1,-16%,-15%
CCOC(=O)Cc1cnc(NC(=O)CSc2nc(C)c(CC)c(=O)[nH]2)s1,-1%,-2%

# Random excerpt: four records from the list
SMILES,Vaccinia mCherry,Vaccinia Venus
O=C(Nc1ccccc1O)c1cccc(S(=O)(=O)N2CCOCC2)c1,-21%,-4%
CCOC(=O)Cc1cnc(NC(=O)CSc2nc(C)c(CC)c(=O)[nH]2)s1,-1%,-2%
CN(C)c1ccc(P(=O)(OCc2ccccc2)C(O)c2ccncc2)cc1 (stereo not drawn),-12%,-14%
C1=C(c2cn(-c3nc4ccccc4s3)nn2)CCCC1,1%,-3%

# (listing goes on)
SMILES,Vaccinia mCherry,Vaccinia Venus
CC1CC(OCC(O)CN2CCN(Cc3ccccc3)CC2)CC(C)(C)C1 (stereo not drawn),x,-26%
CC(C)(C)CN1CCNC[C@H]1Cc1ccc(O)cc1,-18%,-3%
Cc1ccc(C)c(C(C)NC(=O)C2CCCO2)c1 (stereo not drawn),-1%,0%
Nc1c(Cl)cc(Cl)cc1C(=O)OCC(=O)N1CCCC1=O,-16%,2%
CC(=O)c1ccc(OCC(=O)N2CCCC(N3CCN(c4ccccc4C)CC3)C2)cc1 (stereo not drawn),-3%,-16%
c1ccc2c(C3OCC4(CCCC4)CO3)cccc2c1,-3%,-9%
COc1cc(C(=O)NCCCc2nc3ccccc3n2Cc2cc(C)ccc2C)cc(OC)c1OC,-19%,u
CCc1nccn1C(=O)c1cnn2c(C(F)F)cc(-c3ccc(C)cc3)nc12,u,u
Cc1cccc(OCC(=O)NCC(c2ccco2)N2CCCC2)c1 (stereo not drawn),-18%,-14%
CCN1CCCC1CNC(=O)c1ccc(Sc2ccc(F)cc2)c([N+](=O)[O-])c1 (stereo not drawn),-25%,-9%
CC1(C(=O)Nc2ccc3c(c2)OCO3)CCN1C(=O)CCc1cccs1 (stereo not drawn),3%,-1%
COc1ccccc1C(=O)Nc1c2c(nn1-c1cccc(C)c1C)CS(=O)C2 (stereo not drawn),-15%,-13%
CCc1cccc(C)c1NC(=O)CSc1nc(C)cc(C)c1C(=O)Nc1ccccc1,-9%,-9%
O=C(Nc1ncc2c(n1)-c1ccccc1CC2)c1cccc(Cl)c1,u,u
CC1CCCC(C)N1C(=O)COC(=O)Cn1cnc2c1c(=O)n(C)c(=O)n2C (stereo not drawn),i,-6%
C=CCSc1nnc(-c2cnn(-c3ccccc3)c2-n2cccc2)n1C,-7%,-7%
Cc1ccc(S(=O)(=O)Cc2ccc(C(=O)N3CCCC3)o2)cc1,2%,-10%
CCOC(=O)c1ccc(CNC(=O)c2n[nH]c(=O)c3ccccc23)o1,i,-7%
O=C(CO/N=C/c1ccccc1O)NNC(=O)c1ccccc1Cl,-20%,-14%
CC1CN(C(=O)Nc2ccc(C(=O)NCCc3ccc(Cl)cc3)cc2)c2ccccc2S1 (stereo not drawn),-20%,-25%
O=S(=O)(Cc1ccccc1)N(O)c1ccccc1,-7%,-5%
O=C1NC[C@H](Cc2ccc(O)cc2)N(C[C@@H]2CCCN2C[C@H](Cc2ccccc2)N2C[C@H](Cc3ccc(O)cc3)N(CCc3ccccc3)C(=O)C2=O)C1=O,-2%,-4%
NC1=NC(=O)C(Cc2cccc(Cl)c2Cl)S1 (stereo not drawn),-17%,2%
COc1cccc(C(=O)NC2=NCCS2)c1,4%,-6%
Cn1cc(Br)c(C(=O)NC(=S)Nc2ccc(S(N)(=O)=O)cc2)n1,0%,-5%

# Among those listed so far, these contain a Cl atom:
SMILES,Vaccinia mCherry,Vaccinia Venus
COc1nccc(C(F)(F)F)c1C(=O)Nc1ccc(Cl)cc1,-4%,1%
S=C(NCc1ccccn1)Nc1ccc(Br)cc1Cl,1%,-4%
O=C(NCCNC(=O)c1cnccn1)c1cccc(Cl)c1,-7%,4%
Nc1c(Cl)cc(Cl)cc1C(=O)OCC(=O)N1CCCC1=O,-16%,2%
O=C(Nc1ncc2c(n1)-c1ccccc1CC2)c1cccc(Cl)c1,u,u
O=C(CO/N=C/c1ccccc1O)NNC(=O)c1ccccc1Cl,-20%,-14%
CC1CN(C(=O)Nc2ccc(C(=O)NCCc3ccc(Cl)cc3)cc2)c2ccccc2S1 (stereo not drawn),-20%,-25%
NC1=NC(=O)C(Cc2cccc(Cl)c2Cl)S1 (stereo not drawn),-17%,2%

# Next part.
SMILES,Vaccinia mCherry,Vaccinia Venus
O=C(Nc1c(Cl)cccc1Cl)c1cc(-c2ccco2)on1,-18%,-2%
CC(=O)Nc1cc(C(=O)NCc2ccccc2Cl)ccc1Sc1ccc(F)cc1,-5%,-7%
CC(C)OC(=O)Nc1ccc(Oc2c(F)c(F)c(F)c(F)c2F)cc1,x,-9%
Cc1ccc(NC(=O)C(C)OC(=O)c2ccc(NC(=O)CC#N)cc2)cc1S(=O)(=O)N1CCOCC1 (stereo not drawn),-21%,-15%
Cc1noc(C)c1CSc1nnc2cc(C)c3ccccc3n12,x,-14%
Cc1ccccc1C(=O)NC1CCN(CC(=O)NCc2ccccc2)CC1,-18%,0%
Cc1ccc(-c2cc3nc(NCCc4ccncc4)n(C)c(=O)c3s2)cc1,i,u
CCOC(=O)C1CCCN(C(=O)c2c(-c3ccccc3Cl)noc2C)C1 (stereo not drawn),-23%,-20%
Cn1c(N)c(C(=O)CSc2n[nH]c(N)n2)c(=O)n(C)c1=O,-13%,-12%
CSc1ccc(NC(=O)Nc2cccn(Cc3ccccc3F)c2=O)cc1,u,u
CC(NC(=O)CCCCCCN1C(=O)c2ccccc2C1=O)c1ccc2c(c1)CCCC2 (stereo not drawn),-11%,1%
C[C@@]12C(=O)N(CC3CCCO3)CC(=O)N1[C@H]1c3cc(Cl)ccc3OC[C@@H]1[C@@H]2c1ccccc1 (stereo partly drawn),-19%,-7%
O=c1[nH]c(=O)n(CCc2ccc(F)cc2)c(O)c1C=NCCCn1ccnc1,x,-22%
O=c1[nH]c(C2CCN(S(=O)(=O)c3ccc(C(F)(F)F)cc3)CC2)nc2c1nnn2Cc1ccccc1,-19%,-6%
O=C(Nc1sc2c(c1C(=O)NCc1ccco1)CCCC2)c1cc(=O)c2ccccc2o1,-29%,-23%
Cc1ccc(S(=O)(=O)Nc2nccs2)cc1[N+](=O)[O-],i,-3%
CCN(CCO)C(=O)c1cnn(-c2ncc3c(n2)-c2ccccc2CCC3)c1C1CC1,-18%,-19%
CCc1ccc(NC(=O)CC(NCc2cccnc2)C(=O)O)cc1 (stereo not drawn),-6%,-7%
CC(NS(=O)(=O)c1ccc(NC(=O)N2CCCCC2)cc1)c1ccccc1 (stereo not drawn),-6%,-15%
COC(=O)CN1C(=S)N(Cc2ccccc2)C(=O)C1CC(=O)Nc1ccc(Br)cc1 (stereo not drawn),x,u
CC(C)(C)c1cc2ncnc(N3CCCCC3)c2s1,-3%,-24%
Nc1nc(C23CC4CC(CC(Cl)(C4)C2)C3)cs1,-9%,-8%
Fc1cccc(-c2cc3nc4c(c(NCc5ccco5)n3n2)CCCC4)c1,-8%,-30%
COc1ccccc1C(=O)Nc1ccc(C(=O)N2CCCCC2)cc1,-17%,-14%
Cc1ccc(NC(=O)c2ccc(=O)n(Cc3ccccc3C)c2)c(C)c1,-7%,-8%

# Next structures
SMILES,Vaccinia mCherry,Vaccinia Venus
C/C=C(\C)C(=O)OC1[C@H](OC(C)=O)C2(CO)C(CC1(C)C)C1=CCC3C4(C)CCC(O[C@@H]5O[C@H](C(=O)O)[C@@H](O[C@@H]6O[C@H](CO)[C@@H](O)[C@H](O)[C@H]6O)[C@H](O)[C@H]5O[C@H]5O[C@H](CO)[C@@H](O)[C@H](O)[C@H]5O)[C@](C)(CO)C4CCC3(C)[C@]1(C)C[C@H]2O (stereo partly drawn),u,u
N/C(=N\OC(=O)c1ccc(OCC(F)(F)F)nc1)c1ccc(Cl)cc1,i[7.34 µM],-3%[7.34 µM]
O=C(COC(=O)CSc1ccc(F)cc1)NNC(=O)c1ccc([N+](=O)[O-])cc1,-20%,-22%
COc1ccc(NC(=O)CC2C(=O)N(c3cccc(OC)c3)C(=O)N2CCc2cccs2)cc1 (stereo not drawn),-10%,4%
COc1ccc(N2C(=O)c3ccccc3NC2c2cccnc2)cc1 (stereo not drawn),-11%,-4%
Cc1nc2ccccc2c(=O)n1NC(=O)Cc1ccc([N+](=O)[O-])cc1,-21%,-8%
O=C(N/N=C\c1cc(Br)ccc1O)c1ccc(S(=O)(=O)N2CCCCC2)cc1,5µM*,u
O=C(CSc1nc(=O)n2cc(Cl)ccc2n1)Nc1cccc2ccccc12,-2%,-7%
CN(CC(=O)Nc1ccc(F)cc1)C(=O)CSc1nncs1,-9%,-13%
CC(C)(C)C1CCC2(CC1)C(C#N)=C(SCC(=O)Nc1ccccc1)NC(=O)C2C#N (stereo not drawn),x,u
Cc1ccc(NC(=O)CSc2nc(C)c(C)c(C)n2)c([N+](=O)[O-])c1,i,-5%
CCc1ccc(S(=O)(=O)c2nnn(-c3cccc(C)c3)c2N)cc1,-8%,-4%
COC(=O)c1ccc(C(=O)OC)c(NC(=O)C(C)(C)C)c1,i,-2%
Cc1cccc(N(C(=O)Cn2nnc3ccccc32)C(C(=O)NC(C)(C)C)c2ccsc2)c1C (stereo not drawn),-15%,-11%
Cc1ccc2[nH]cc(S(=O)(=O)c3ccc(F)cc3)c(=O)c2c1,-8%,-17%
Cc1cc(NC(=O)/C=C/c2ccc(Br)cc2)no1,-7%,-18%
CCn1c(SCC(=O)O)nnc1C1CCCCC1,i,-10%
CCOC(=O)CCCCC(=O)c1[nH]c(=O)[nH]c1Cn1ccnc1,i,-9%
CCOC(=O)C1CN(S(=O)(=O)c2ccc(C)cc2)c2ccccc2O1 (stereo not drawn),-20%,-12%
CCOP(=O)(OCC)C(Nc1cccc(C(F)(F)F)c1)c1ccc(F)cc1 (stereo not drawn),i,-8%
O=C(Cn1nc(Cc2cccnc2)c2ccccc2c1=O)NCC1CCCO1 (stereo not drawn),i,-2%
COc1cccc(OCC(O)CN2CCN(CCN3C(=O)c4cccc5cccc(c45)C3=O)CC2)c1 (stereo not drawn),i,-13%
Cc1nc2ccccc2n1CCCOc1ccccc1,-24%,u
O=C(CC1C(=O)NCCN1CC1CCCCC1)NCCc1ccc(F)cc1 (stereo not drawn),u,-16%
CCCC(=O)Nc1nc2ccc(NC(=O)c3c(F)c(F)c(OC)c(F)c3F)cc2s1,-22%,-22%

# (continued)
SMILES,Vaccinia mCherry,Vaccinia Venus
C[C@H]1CN(S(=O)C(C)(C)C)[C@H](CCO)/C1=C\CCO (stereo partly drawn),i,-8%
CC[C@H](C)[C@@H]1NC(=O)c2cc([N+](=O)[O-])cc(F)c2NCCCC[C@@H](C(N)=O)NC(=O)[C@H](CC(N)=O)NC1=O,i,-1%
CCOC(=O)C(Cc1ccccc1)c1ccnc2ncnn12 (stereo not drawn),-1%,-4%
CC(=O)Nc1ccc(-c2ccnc3c2CC(C(=O)NCCc2ccccc2)O3)cc1 (stereo not drawn),i,-5%
N#Cc1c(/N=C/N2CCCC2)oc(-c2ccccc2)c1-c1ccccc1,x,u
CCNC(=O)COC(=O)CCNC(=O)c1cccc(C)c1,-11%,-8%
